VDR inhibitor – blocks the human vitamin D receptor; VDR-SRC2-3 peptide fluorescence polarization, 2 h; Potency, µM, inactives show max response, negative = inhibition, usual class: inhibitors; 0.93% of 400,000 active; active = well fitted inhibition curve with a large enough effect; inconclusive = small, poorly fitted or top-dose-only effect, or another doubt; inactive = no such curve, though single readings can be large or run the other way; note: series mostly up to about 120 µM
Target sequence (P11473 whole entry, looked up): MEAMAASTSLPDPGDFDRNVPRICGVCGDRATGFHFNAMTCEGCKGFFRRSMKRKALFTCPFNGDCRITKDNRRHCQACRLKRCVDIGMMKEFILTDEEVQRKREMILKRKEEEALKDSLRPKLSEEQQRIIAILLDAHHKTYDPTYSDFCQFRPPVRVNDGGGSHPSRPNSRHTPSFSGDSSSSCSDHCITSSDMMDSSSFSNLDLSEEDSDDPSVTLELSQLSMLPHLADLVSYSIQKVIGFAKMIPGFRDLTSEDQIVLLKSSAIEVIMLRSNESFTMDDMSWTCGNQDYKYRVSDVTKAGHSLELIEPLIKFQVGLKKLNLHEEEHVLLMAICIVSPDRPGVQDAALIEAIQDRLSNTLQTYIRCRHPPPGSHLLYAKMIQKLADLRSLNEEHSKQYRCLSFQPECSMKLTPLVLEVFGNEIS
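FP read-out; VDR + SRC2-3 coactivator peptide; 23 nl compound by pintool; 2 h RT incubation; reagents held at 4 deg C, protected from light.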
* = called active by the depositor; u = inconclusive; & = joins results of further samples; [ ] = dose if it differs, or a comment. % is set by controls: 0 for no effect and ±100 for the full control effect; potency is the fitted concentration of half-maximal effect. This is a subset (hit frequency here may not be typical).

The first seven entries, ahead of the listing:
No.	SMILES	VDR inhibitor
1	CC(C)(O)c1[nH]c2cc(F)ccc2c1C(C)(C)O	u
2	COc1ccc2oc(C(=O)NC3(C)CCS(=O)(=O)C3)c(C)c2c1 (stereo not given)	-17%
3	COc1ccc2[nH]cc(CCNC(=O)c3ccc4ccccc4n3)c2c1	4%
4	CCOC(=O)c1c(NC(=O)c2ccc(S(=O)(=O)N3CCC(C)CC3)cc2)sc2c1CCN(CC)C2	10%
5	COCCn1c(=O)c(CCc2ccccc2)nc2cnc(Oc3ccc(OC)cc3)nc21	-22%
6	CCc1ccc(N(CC)C(=O)Cn2nc(Cc3cccnc3)c3ccccc3c2=O)cc1	6%
7	CCOC(=O)c1c(CCl)nc2ccccc2c1C	-1%

All compounds of this part, previewed entries included:
No.	SMILES	VDR inhibitor
1	CC(C)(O)c1[nH]c2cc(F)ccc2c1C(C)(C)O	u
2	COc1ccc2oc(C(=O)NC3(C)CCS(=O)(=O)C3)c(C)c2c1 (stereo not given)	-17%
3	COc1ccc2[nH]cc(CCNC(=O)c3ccc4ccccc4n3)c2c1	4%
4	CCOC(=O)c1c(NC(=O)c2ccc(S(=O)(=O)N3CCC(C)CC3)cc2)sc2c1CCN(CC)C2	10%
5	COCCn1c(=O)c(CCc2ccccc2)nc2cnc(Oc3ccc(OC)cc3)nc21	-22%
6	CCc1ccc(N(CC)C(=O)Cn2nc(Cc3cccnc3)c3ccccc3c2=O)cc1	6%
7	CCOC(=O)c1c(CCl)nc2ccccc2c1C	-1%
8	Cn1c(=O)c2c(nc(CN3CCc4ccccc4C3)n2Cc2cccc(Cl)c2)n(C)c1=O	u
9	O=C(Nc1cccnc1)c1ccccc1F	-6%
10	c1ccc(-c2nnc(SCc3cn4ccsc4n3)o2)cc1	13%

(cont.)
No.	SMILES	VDR inhibitor
11	CC(C)CN(C(=O)CSc1nc2ccccc2o1)c1c(N)n(Cc2ccccc2)c(=O)[nH]c1=O	-14%
12	O=c1oc(-c2cccs2)nc2sc3c(c12)CCCC3	3%
13	CC(C)CCNS(=O)(=O)c1ccc(-c2ccc(S(=O)(=O)NCCC(C)C)cc2)cc1	2%
14	O=C(NOCc1ccccc1)c1cccc([N+](=O)[O-])c1	-2%
15	C/C(=N\N1CCN(c2ccc(Cl)cc2)CC1)c1ccco1	-9%
16	O=C(COC(=O)C1CC2C=CC1C2)Nc1ccccc1 (stereo not given)	4%
17	CCN(CC)C(=O)c1cn(CC)c(=O)c2cc(OC)c(OC)cc12	-13%
18	CCSc1c(C(=O)NC)ccc2c1C(=O)c1ccccc1C2=O	-11%
19	Cc1ccc(C2(C)NC(=O)N(CCOc3ccccc3)C2=O)cc1 (stereo not given)	9%
20	CC(C)(C)c1ccc(CN(Cc2ccccc2)C(c2ccccn2)c2nnnn2C(C)(C)C)cc1 (stereo not given)	5%

The list goes on.
No.	SMILES	VDR inhibitor
21	O=C(CS(=O)(=O)c1ccccc1)Nc1nc(-c2ccc(F)cc2)cs1	-5%
22	S=C1NCN(Cc2ccco2)CN1	-6%
23	O=C(NCCc1ccccc1)c1nc(-c2cccs2)no1	-14%
24	COc1ccc(-c2cc(C(F)(F)F)nc(N3CCCCCC3)n2)cc1	-13%
25	C=C1CC[C@@]23CC[C@]4(C)[C@@](OC2=O)([C@@H]3C1)[C@H]1O[C@H]1C1[C@@]2(C)CC[C@H](O)C(C)(C)C2CC[C@]14C (stereo not given in full)	-13%
26	COc1ccc(NC(=S)NNC(=O)OC(C)(C)C)cc1OC	2%
27	CC(C)n1cc(CN2CCCC(C(=O)Nc3cccc(-c4cc5ccccc5[nH]4)c3)C2)cn1 (stereo not given)	5%
28	COc1ccc(OC(=O)c2cn(-c3cccc(OC)c3)c(=O)c3ccccc23)cc1	0%
29	COc1cc(C(=O)NC(=S)Nc2ccc(Cl)cn2)cc(OC)c1OC	u
30	Cc1ccc(N2CC(C(=O)OCc3ccccc3F)CC2=O)cc1 (stereo not given)	-3%

The list continues:
No.	SMILES	VDR inhibitor
31	COc1ccc([C@H]2[C@H](C(=O)C(C)(C)C)N3N=Cc4ccccc4C3C23C(=O)OC(C)(C)OC3=O)cc1 (stereo not given in full)	-22%
32	Cc1ccc(S(=O)(=O)N(CC(=O)O)Cc2ccco2)cc1	0%
33	N#CC1(Cc2ccc(Cl)cc2)c2ccccc2C=CN1C(=O)c1ccccc1 (stereo not given)	17%
34	CCCn1nc(C(=O)NC2CCCC2)c2ccccc2c1=O	-2%
35	CCc1cc(=O)[nH]c(SCC(=O)N2CCCC2)n1	7%
36	COc1cccc(NC(=O)c2sc3nc(C)c(C(=O)Nc4ccc(C)cc4C)c(-c4sccc4C)c3c2N)c1	-7%
37	C/C(=N\NC(=S)NCc1ccccc1)c1ccc2ccccc2c1OC(F)F	-11%
38	COc1ccccc1NC(=O)N1CCCC1C(=O)NCc1ccc(F)cc1 (stereo not given)	1%
39	CC(=O)c1cc(CN2CCN(C3CCCCC3)C(CCO)C2)cs1 (stereo not given)	-12%
40	CCc1c(C)nc(N)nc1Cl	8%

The list continues.
No.	SMILES	VDR inhibitor
41	COC(=O)c1cccc(NC(=O)c2ccccc2)c1	3%
42	CSc1ccc(CN(C)CC(=O)Nc2c(F)cccc2F)cc1	-14%
43	O=C(NCc1nc2ccccc2[nH]1)C1=C[C@@H](C2CCCCC2)C[C@@H](OCc2ccc(CO)cc2)O1	12%
44	COc1ccccc1NC(=O)Cn1c(CN2CCCCC2)nc2ccccc2c1=O	9%
45	Cc1ccc2nc(Nc3ccc(C)c(Cl)c3)c3nncn3c2c1	-13%
46	COc1ccnc(N2CCN(c3ccccc3)CC2)c1C#N	21%
47	Nc1ccc(Oc2ccc3c(c2)C(=O)N(CC2CCCO2)C3=O)cc1 (stereo not given)	1%
48	Cc1ccc(C)c(OC2=NS(=O)(=O)c3ccccc32)c1	-17%
49	COc1cc(Cl)cc(C(c2c(C(=O)O)[nH]c3ccccc23)c2c(C(=O)O)[nH]c3ccccc23)c1O	u
50	O=C(CNC(=O)c1ccco1)N=Nc1c(O)[nH]c2ccc([N+](=O)[O-])cc12	-1%

(continued)
No.	SMILES	VDR inhibitor
51	O=C(NCc1ccc(F)cc1)c1ccc(Cn2c(SCc3ccc(F)cc3)nc3cccnc32)cc1	5%
52	CCOCc1cc(CN2CCC(CCC(=O)NC3CC3)CC2)ccc1OC	7%
53	O=C(Nc1ccncc1)c1ccc2c(c1)C(=O)N(C1CCCCC1)C2=O	-2%
54	CCCNC(=O)Cc1c(C)n(C(=O)c2ccc(Cl)cc2)c2ccc(OC)cc12	2%
55	CCOc1ccc(Nc2cc(=O)[nH]c(=O)[nH]2)cc1	-10%
56	Cc1cc(=O)oc(C)c1C(=O)NCCN1CCOCC1	25%
57	CCOC(=O)c1sc2nc(CSc3ccccc3Cl)[nH]c(=O)c2c1C	-10%
58	CC(=O)c1ccc(NC(=O)CSc2nccn2C2CCCC2)cc1	5%
59	COC(=O)C(c1ccc(OC)c(OC)c1)C1c2ccccc2C=C(C)N1C(=O)OC (stereo not given)	-5%
60	COc1cccc(NC(=O)COc2cccc3c2CCNC3=O)c1	-5%

New compounds follow:
No.	SMILES	VDR inhibitor
61	COc1ccc(CCNc2nnc(Sc3nnnn3-c3ccccc3)s2)cc1OC	-4%
62	COc1ccc(-c2cc(C(=O)Nc3ccc(F)cc3F)no2)cc1	6%
63	CC(=O)c1ccc(N2CCN(C(=S)NCCCN(C)C)CC2)cc1	-10%
64	Cc1ccc(CS(=O)(=O)Cc2ccc(C(=O)NCc3cccnc3)o2)cc1	-1%
65	CCc1c(C)sc2c1CCN(C(=O)Nc1ccccc1C(=O)OC)C2c1ccc(F)cc1 (stereo not given)	3%
66	O=C(N/N=C\c1ccc([N+](=O)[O-])o1)C1COc2ccccc2O1 (stereo not given)	-3%
67	O=C(/C=C/c1ccccc1Cl)NNC(=O)c1cccs1	-9%
68	CCc1ccccc1S(=O)(=O)Cc1ccc(C(=O)N2CCN(c3ccccn3)CC2)o1	-2%
69	O=C(CN1C(=O)c2ccccc2S1(=O)=O)NCCC1=CCCCC1	10%
70	Cc1ccc(Cn2nnc3c(=O)[nH]c(C4CCN(C(=O)Cc5ccccc5F)CC4)nc32)cc1	2%

5 compounds out of the list, arranged by SMILES length, lowest first:
No.	SMILES	VDR inhibitor
9	O=C(Nc1cccnc1)c1ccccc1F	-6%
67	O=C(/C=C/c1ccccc1Cl)NNC(=O)c1cccs1	-9%
60	COc1cccc(NC(=O)COc2cccc3c2CCNC3=O)c1	-5%
48	Cc1ccc(C)c(OC2=NS(=O)(=O)c3ccccc32)c1	-17%
29	COc1cc(C(=O)NC(=S)Nc2ccc(Cl)cn2)cc(OC)c1OC	u

(further entries)
No.	SMILES	VDR inhibitor
71	O=C(Nc1cccc(-n2cnnn2)c1)c1ccco1	13%
72	C#CCOCCOCCOCCNc1nc(N2CCN(C(=O)[C@H](CCCCN)n3cc(CC(C)O)nn3)CC2)nc(N2CCN(C(=O)[C@H](CCCCN)n3cc(CC(C)O)nn3)CC2)n1 (stereo not given in full)	-4%
73	CC1=NNC(=O)C1Cc1ccc(F)cc1 (stereo not given)	6%
74	Cc1ccc(NC2CC(=O)N(c3ccc(N4CCCCC4)cc3)C2=O)cc1 (stereo not given)	1%
75	CC(=O)Nc1ccc(NS(=O)(=O)c2cc(Br)cc3c2N(C(=O)C2CC2)CC3)cc1	u
76	Cc1ccc(N2CCN(C(=O)c3cccc([N+](=O)[O-])c3)CC2)cc1Cl	20%
77	COC(=O)NNC(=O)COc1ccc(Cl)cc1	0%
78	CCOC(=O)CN(C)S(=O)(=O)c1ccc(-c2cc(C(=O)OC)sc2C(F)(F)F)cc1	-14%
79	CCOc1ccc(C2C(C#N)=C(N)N(N(C)C)C3=C2C(=O)CCC3)cc1 (stereo not given)	3%
80	CCc1ccc2c(CN3CCN(S(=O)(=O)c4ccc5c(c4)OCCO5)CC3)cc(=O)oc2c1	82%[activator]

The list continues.
No.	SMILES	VDR inhibitor
81	O=c1cnc2cc([N+](=O)[O-])ccc2[nH]1	-13%
82	O=C(Nc1ccccc1)N1CCOCC1	-12%
83	CC[N+]1=C(C)C(C)(C)c2cc(C)ccc21	7%
84	CSc1ncc(Cl)c(C(=O)Nc2nnc(SC/C=C/c3ccccc3)s2)n1	-6%
85	CC(=O)N/N=C/c1cc2c(cc1[N+](=O)[O-])OCO2	-20%
86	C[C@H](NC(=O)OC(C)(C)C)c1nnc(SCc2ccc(Cl)cc2Cl)o1	-6%
87	O=C(CNS(=O)(=O)c1ccccc1)NCc1ccccn1	9%
88	O=C(N/N=C/c1ccc2c(c1)OCO2)C1CC1	10%
89	CC1(C)CC(O)(CNCc2ccc3c(c2)OCO3)CCO1 (stereo not given)	-8%
90	O=C(CC1Sc2ccccc2NC1=O)Nc1cccc(-c2nnc3n2CCCCC3)c1 (stereo not given)	7%

The listing continues:
No.	SMILES	VDR inhibitor
91	CCCCN1C(=O)NC2NC(=O)NC21 (stereo not given)	-1%
92	Cc1ccc(-n2cnc3scc(-c4cccs4)c3c2=O)cc1	-4%
93	COc1cc(/C=C(/C#N)C(=O)NCc2ccccc2)cc(OC)c1OC	-22%
94	CN(C)c1ncc([N+](=O)[O-])cc1C(F)(F)F	-17%
95	CNC(=O)/C(C#N)=C/c1c(N2CC(C)OC(C)C2)nc2ccccn2c1=O (stereo not given)	-19%
96	COc1ccc(C(=O)NC(=S)N(C)Cc2ccccc2)cc1Br	19%
97	COc1ccccc1NS(=O)(=O)c1cc(NC(=O)c2[nH]c(C)c(C(C)=O)c2C)ccc1N1CCOCC1	-19%
98	CCCCNC(=O)c1c(CSc2ccccc2)noc1C(=O)NCc1ccccc1	4%
99	Cc1ccc(CNC(=O)COc2ccc(S(=O)(=O)NC(C)C)cc2)cc1	5%
100	Cc1cccc(C)c1Nc1nnc(SCC(=O)c2ccc3c(c2)NC(=O)CO3)s1	-5%

(listing goes on)
No.	SMILES	VDR inhibitor
101	COC(=O)/C(=C\Nc1ccc(Oc2ccc(F)cc2F)nc1)NC(=O)c1ccccc1	-12%
102	CCOC1=NC(C(=O)O)c2ccccc2/C(=C(/C)Cl)N1 (stereo not given)	-14%
103	C=CCN1C(=O)C2C(C(=O)NC)C3C=CC2(O3)C1C(=O)NCc1ccc(OC)cc1 (stereo not given)	2%
104	Cc1ccc(C(=O)Nc2cccnc2)cc1NC(=O)c1ccco1	6%
105	O=C(CCc1nc2ccccc2c(=O)[nH]1)NCc1cccc(Cl)c1	16%
106	Cc1ccc(-n2ncc3c(Nc4ccc(Oc5ccccc5)cc4)ncnc32)c(C)c1	7%
107	COc1ccc2nc(NC(=O)NC3CCCCC3)sc2c1	3%
108	Cc1ccc(Oc2c(C(F)(F)F)oc3cc(OCC(=O)NC4CCCCC4)ccc3c2=O)cc1	-3%
109	CS(=O)(=O)c1sc(C(=O)NC(=O)Nc2cccc(C(F)(F)F)c2)c2c1C=CCC2	-3%
110	O=C(/C=C/c1ccc2c(c1)OCO2)N1CCN(c2ccc(Cl)cc2)CC1	9%

Next entries follow.
No.	SMILES	VDR inhibitor
111	CCOc1cc2sc(N3CCC(C(=O)Nc4ccc(C)cc4)CC3)nc2cc1Br	-4%
112	O=c1c2cnn(-c3ccccc3Cl)c2ncn1Cc1cccnc1	16%
113	O=[N+]([O-])c1ccc(Cl)c(/C=N/n2c(COc3ccccc3)n[nH]c2=S)c1	u
114	CC(=O)c1c(C)n(CC(=O)NCc2ccc3c(c2)OCO3)c2ccccc12	-9%
115	Cn1c(SCC(=O)c2ccccc2)nnc1-c1ccc(O)cc1	-21%
116	CCCCCCCCCCCCC/C=C/[C@@H](O)[C@@H](N)COP(=O)(O)O	-3%&1%
117	COc1ccccc1NCc1cc(=O)oc2c(C)c(O)ccc12	-7%
118	CN1CCN(C(=O)CCn2c(=O)c3cccn3c3cccnc32)CC1	-5%
119	O=C(CSc1nc2ccccc2o1)N1CCN(S(=O)(=O)c2ccc3ccccc3c2)CC1	-3%
120	CC(C)Cn1c(N)c(C(=O)COC(=O)c2ccc3c(c2)OCCO3)c(=O)n(C)c1=O	17%
121	CCOC(=O)c1c(C)[nH]c(C(=O)OCC(=O)N(CC(C)C)c2c(N)n(Cc3ccccc3)c(=O)[nH]c2=O)c1C	-9%
